Rce1 inhib: blocks yeast Ras-converting enzyme; yeast membranes, quenched prenylated peptide cleavage fluorescence; calls only; 290,000 compounds, 0.27% hits; AID 2563;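 active = fall in fluorescence gain of 50% or more versus controls, with final raw signal at or below 3038400; inconclusive = same 50% fall but final raw signal above 3038400; inactive = fall in fluorescence gain under 50%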;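 note: plate controls were neutral control wells for no effect and wells lacking membranes for full effect; tested at 10 µM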
Yeast UUG start: modulators of start codon recognition fidelity in yeast | activity score, % at 18.7 µM | S. cerevisiae UUG-firefly luciferase reporter, luminescence/redox ratio | AID 602363 | 350,000 compounds, 0.13% hits;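 active = replicate mean at a twofold rise or more, about +100% in these data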;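 note: firefly luciferase made from a UUG start codon reports start codon fidelity; reporter light over untreated wells divided by growth signal over untreated wells; some hits fall short of that in this replicate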
MT1-MMP act inh: inhibitors of human MT1-MMP activation. P50281. HT1080 RFP-PRO-GFP cells, GFP/RFP ratio fluorescence, overnight; percent of plate control window, DMSO zero. GFP/RFP ratio change, % at 20 µM. 360,000 compounds, 0.061% hits. AID 651647;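 active = GFP/RFP ratio change of at least 30% with cell ATP level not reduced by more than half and red fluorescence within 50% of control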; note: strong numbers were not always called active
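Material – HT1080 RFP-PRO-GFP cells · Control set – DMSO wells and RFP-L50D-GFP cells · Incubation – overnight cell settling, then overnight compound exposure, 37 °C, 5% CO2 · Compound dosing – single-point 20 µM compound, 1% DMSO · Read-out – GFP/RFP fluorescence ratio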
eIF4H FP inh: inhibitors of RNA binding by human eIF4H; eIF4H fluorescence polarization binding assay; inhibition, % at 35 µM; 290,000 compounds, 0.94% hits;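 active = 50% or more with normal probe brightness, or confirmed in later tests; inconclusive = above 50% with abnormal brightness, or retests that disagree; inactive = below 50% or failed in later tests; about a fifth of its hits are not listed in these tables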;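 note: calls also rest on retests at 20 µM and on dose response follow-up; 0% = protein and probe with vehicle and 100% = probe without protein; strong numbers were not always called active; many hits fall short of the cut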
PABP FP inh: PABP-poly(A) binding inhibition. PABP-poly(A) RNA binding, fluorescence polarization. inhibition, % at 35 µM. 290,000 compounds, 1% hits. AID 2014;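 active = 50% or more with normal probe brightness, or confirmed in later tests; inconclusive = above 50% with abnormal brightness, or retests that disagree; inactive = below 50% or failed in later tests; about a fifth of its hits are not listed in these tables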;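 note: calls also rest on retests at 20 µM and on dose response follow-up; controls were probe without protein and protein plus probe with vehicle; some compounds called inactive have numbers as strong as hits; many hits fall short of the cut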
Target sequence (P11940 whole entry, looked up): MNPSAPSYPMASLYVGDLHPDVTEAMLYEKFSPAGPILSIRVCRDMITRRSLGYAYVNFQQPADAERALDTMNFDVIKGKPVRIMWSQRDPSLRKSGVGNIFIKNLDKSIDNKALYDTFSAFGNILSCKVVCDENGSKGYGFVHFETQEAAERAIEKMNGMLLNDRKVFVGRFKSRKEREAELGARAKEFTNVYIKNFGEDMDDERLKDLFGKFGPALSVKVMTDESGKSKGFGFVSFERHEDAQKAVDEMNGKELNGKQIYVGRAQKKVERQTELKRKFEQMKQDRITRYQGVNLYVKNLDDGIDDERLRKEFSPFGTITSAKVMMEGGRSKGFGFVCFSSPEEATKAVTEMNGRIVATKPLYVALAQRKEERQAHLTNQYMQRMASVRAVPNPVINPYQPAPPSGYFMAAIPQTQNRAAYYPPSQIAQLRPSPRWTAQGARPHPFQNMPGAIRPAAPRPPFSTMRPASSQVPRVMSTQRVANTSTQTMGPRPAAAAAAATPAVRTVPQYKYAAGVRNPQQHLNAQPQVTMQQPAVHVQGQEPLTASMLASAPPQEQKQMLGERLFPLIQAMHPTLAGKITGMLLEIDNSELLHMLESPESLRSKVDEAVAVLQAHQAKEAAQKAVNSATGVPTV
HIV Env fusion: blocks HIV Env-driven cell-cell fusion. HeLa-JRFL Env/CEM21 cell fusion, luciferase. 360,000 compounds, 1.1% hits. inhibition, % at 12.3 µM;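 active = mean replicate inhibition score of at least 50 and every replicate individually at or above 50; inconclusive = only one of the two criteria met; inactive = mean below 50 and not all replicates reaching 50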;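 note: 0% = plate neutral controls and 100% = maraviroc near 300 nM; one replicate is shown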
CSC inhib: blocks cancer stem cells; cancer stem cell-like cells viability, luminescence; inhibition, % at 7.5 µM; 300,000 compounds, 1.1% hits; AID 2717;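 active = mean at 75% or more and at least half the replicates too; inconclusive = mean and replicates disagree; tested in HMLE shEcad cells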;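 note: 0% = median of negative and 100% = median of positive control wells; the first replicate is given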
MT1-MMP act inh RFP: second read-out of MT1-MMP act inh, no call of its own (marks repeat the call); RFP signal change, %; measured here: RFP expression control read;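 0 = vehicle wells; hits needed this value within 50% of zero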
Numbers without * were called inactive; i = inactive; ? = inconclusive; / = not tested or not shown.

SMILES	Rce1 inhib	Yeast UUG start	MT1-MMP act inh	MT1-MMP act inh RFP	eIF4H FP inh	PABP FP inh	HIV Env fusion	CSC inhib
COc1ccc(C(=O)Nc2nnc(C3=COCCO3)o2)cc1	i	-21	3	4	-11	-10	-1	12
CCOC(=O)c1sc(NC(=O)CSc2nc3ccccc3s2)c(C(=O)OCC)c1C	i	/	/	/	2	4	/	-4
Cc1onc(-c2ccccc2)c1CNC(=O)Nc1ccc(F)cc1F	i	/	3	-11	3	-4	-18	-6
CCOC(=O)c1ccc2nc(NC(=O)c3ccco3)sc2c1	i	-11	-1	-4	-7	-12	-201	-15
C=CCn1c(=O)c(C(=O)Nc2ncccc2O)c(O)c2ccccc21	i	-16	-1	1	22	32	9	/
O=C(NC12CC3CC(CC(C3)C1)C2)c1ccc(-c2ccccc2Cl)o1	i	-23	-7	-5	-4	-13	/	125*
Cc1nn(C)c(Oc2cccc(Cl)c2)c1C(=O)Nc1ccc(F)cc1F	i	/	-3	-6	-9	-10	/	-4
COc1cccc(CC(=O)NC2CCSc3ccccc32)c1 (stereo not drawn)	/	-10	/	/	0	4	3	3
CCOc1ccc(CCNC(=O)c2cc3sccc3n2CC)cc1OCC	i	-4	8	-6	2	-4	65*	20
COc1cccc(NC(=O)CSC2=C(C#N)C(c3ccco3)C3=C(CCCC3=O)N2)c1 (stereo not drawn)	i	-9	-6	-9	-1	-2	-257	50
N#Cc1cnn2c(-c3ccccc3)ccnc12	i	-23	0	0	11	-3	/	-12
Cc1nc(CC(=O)N2CCN(c3cccc(C)c3C)CC2)cs1	i	-14	1	0	17	26	-67	12
Cc1ccc(OCC(=O)N[C@@H](C)c2nnc3ccccn23)cc1C	i	-21	0	4	8	0	2	-25
Cc1csc2nc(O)c(C(=O)NC3CCCCC3C)c(=O)n12 (stereo not drawn)	i	-5	-10	-5	/	/	/	-9
COc1ccc2nc(C)cc(N3CC(C)OC(C)C3)c2c1 (stereo not drawn)	i	-13	3	6	1	3	-30	-7
CC1CC(C)(C)CC2(C1)NC(=O)N(CC(=O)Nc1ccc3[nH]c(=O)[nH]c3c1)C2=O (stereo not drawn)	/	-1	-3	2	/	/	-3	/
COc1ccc(CC(=O)NCCC(C)C)cc1S(=O)(=O)N1CCOCC1	i	7	-1	3	-3	8	8	-6
CC(C)(C)OC(=O)NNC(=O)Nc1ccccc1C(F)(F)F	i	/	3	4	-6	0	-8	8
CCN(CC)CC(=O)N(CC(=O)Nc1c(C)cc(C)cc1C)C1CCCCC1	/	1	-7	-1	-5	-1	-56	-15
CCN(Cc1ccccc1)Cc1cc(OC)cc(OC)c1	/	-2	-9	-14	-7	13	-16	-21
Cc1cccc(C)c1NC(=O)CSCc1cccc(CSCC(=O)Nc2c(C)cccc2C)n1	i	-18	7	-1	-1	-10	-85	3
CCOc1ccc(-n2cc(-c3ccccc3)c3c(=O)[nH]cnc32)cc1	i	-3	-3	-5	1	8	11	-1
CCN(CC(=O)Nc1ccccc1OC)C(=O)c1ccc(N(C)S(=O)(=O)c2ccc(C)cc2)cc1	i	4	-1	-4	/	/	26	-9
CCOC(=O)c1c(N)sc2c1CCS(=O)(=O)C2	i	-26	1	12	18	38	-21	-9
COc1ccc(-n2cnc3cc(N)ccc32)cc1	i	-26	6	1	2	-10	/	14
O=C(c1ccoc1)N1CCC2(CCCN(Cc3ccc(F)c(F)c3)C2)C1 (stereo not drawn)	i	-17	-11	3	-4	-6	6	4
COc1ccc(CNc2nc3nc(C)cc(C)n3n2)cc1OC	i	-14	-3	2	-8	9	-7	-4
CC(=O)Nc1ccc(NC(=O)C2CC(=O)N=C(N)S2)cc1 (stereo not drawn)	i	-7	2	1	-7	6	/	-4
O=C(CSc1nnc(Cc2cccs2)n1C1CCCCC1)N1CCN(C(=O)c2ccco2)CC1	i	-12	-8	-3	-6	-1	-1	-18
CC12CCC(C(=O)N3CCCc4ccccc43)(OC1=O)C2(C)C (stereo not drawn)	i	/	0	4	-1	9	0	1
c1ccc(OCc2nnc(-c3ccccc3)o2)cc1	i	/	-1	-1	-8	-12	-48	4
COc1cc2c(cc1OC)C(c1cccc(OC)c1OC)CC(=O)N2 (stereo not drawn)	i	-3	3	4	2	-10	-238	3
C=CCOC(=O)C1=C(C)NC(=O)NC1c1ccc(OC(=O)c2ccco2)c(OC)c1 (stereo not drawn)	i	-33	1	4	-7	4	/	2
CN(CC(=O)Nc1cccc(S(=O)(=O)N2CCCC2)c1)CC(=O)Nc1ccc(Cl)c(C(F)(F)F)c1	i	-3	10	-25	/	/	6	32
COc1ccccc1C(=O)NC(=O)COC(=O)c1ccc(Cl)nc1	i	/	0	4	/	/	0	-3
CCOc1ccc(NC(=O)N(CCC(C)C)C(C)c2ccco2)cc1 (stereo not drawn)	i	/	0	-3	6	-1	-73	-1
C=CCn1c(=S)[nH]c2sccc2c1=O	i	/	3	5	8	21	8	6
COc1cc2c(cc1OC)C(=S)NC(C)(C)C2	i	-22	-1	-2	-4	-6	/	-4
CSc1nnc(-c2ccccc2)n1C	i	-19	-3	-2	6	?	-17	-10
O=C(CNCc1ccc(F)cc1)Nc1ccc(C(=O)N2CCCCC2)cc1	i	6	5	4	8	1	-5	17
OC[C@@H]1CN(CCN2CCOCC2)C[C@H](n2cnc3c(NC4CCCC4)ncnc32)O1	/	-7	1	4	/	/	8	/
CS(=O)(=O)Nc1nnc(CCc2ccccc2)s1	i	-9	1	1	0	4	-472	-21
O=C(O)c1ccc(Sc2nnc(-c3cccc(Br)c3)o2)c([N+](=O)[O-])c1	i	-12	-2	0	10	23	-94	16
Cc1ccccc1Nc1nc(N)nc(COC(=O)c2cccc(S(=O)(=O)N(C)C)c2)n1	i	4	13	-1	2	4	-10	2
CCc1ccc(-c2cn3c(n2)SCC3)cc1	i	-24	-1	-2	-4	2	-75	-5
Cc1cc2[nH]c(=O)c(=O)[nH]c2cc1S(=O)(=O)Nc1cccc(F)c1	i	-4	2	2	-8	-8	-7	-16
O=C(Nc1ccccc1)c1cc(C2CCCCN2C(=O)CCCc2ccccc2)on1 (stereo not drawn)	/	-4	-6	-9	/	/	1	/
CCn1nc(C(=O)OCC(=O)c2cc(C)n(Cc3cccs3)c2C)c2ccccc2c1=O	i	-21	1	3	-5	-4	-109	12
Cc1cc(C)n(CCNC(=O)CC2C(=O)NCCN2Cc2ccc(C)o2)n1 (stereo not drawn)	i	/	-1	3	12	10	-4	-13
Cc1cccc(NC(=O)COC(=O)c2nn(-c3ccccc3C(F)(F)F)cc2O)c1C	/	-7	1	-1	/	/	8	/
O=S(=O)(O)c1cccc2c(N=Nc3ccc(O)c4ncccc34)cccc12	i	-12	23	5	82*	98*	/	-6
Cc1ccc(C(=O)N2CCN(Cc3ccc4c(c3)OCO4)CC2)cc1[N+](=O)[O-]	i	/	1	-5	1	14	11	-2
CC(C)Sc1nnc(SCC(=O)NCCCN2CCCC2=O)s1	/	-17	1	8	/	/	/	3
COc1ccc2cc(S(=O)(=O)NCc3cccnc3)ccc2c1	i	-25	-3	-19	8	8	-5	-1
CNC(=S)N1CCC(NC(=O)c2ccco2)CC1	i	/	/	/	2	-3	/	-10
COc1ccccc1NC(=O)C1=C(C)Nc2nnnn2C1c1ccccn1 (stereo not drawn)	i	-18	0	2	-3	-13	-7	-10

Next entries follow.
SMILES	Rce1 inhib	Yeast UUG start	MT1-MMP act inh	MT1-MMP act inh RFP	eIF4H FP inh	PABP FP inh	HIV Env fusion	CSC inhib
CCCN(CC1CC1)c1cc2c(c3c1ccn3C)C1CCC2O1 (stereo not drawn)	/	0	-1	-1	/	/	-10	/
C=CCNc1sc(C(=O)c2ccc(C)cc2)c(N)c1C#N	i	6	1	-5	4	9	/	-14
N#CCC(=O)N/N=C/c1cc(Br)ccc1OCc1cccc2ccccc12	i	-17	-4	-4	-8	10	2	39
Cn1nc([N+](=O)[O-])nc1Sc1nnnn1-c1cccc(C(=O)O)c1	i	0	1	-1	-1	-4	15	-25
O=C(Nc1cccnc1)c1ccco1	i	-15	3	-5	-3	16	-12	-21
CCCOc1ccc(-c2nc(OC)c3ccccc3n2)cc1	i	-27	-1	5	-4	-3	/	26
O=C(C[C@H]1C[C@@H]2c3cc(NC(=O)C4CCC4)ccc3O[C@@H]2[C@H](CO)O1)NC1CCCCC1	/	-8	2	3	/	/	3	/
COc1ccc(OC)c2sc(NC(=O)c3ccc(Br)s3)nc12	i	-18	9	2	-3	5	/	-5
CN1CCN(C(=O)/C(=C\c2cccs2)NC(=O)c2ccco2)CC1	i	-1	0	5	-11	-2	-18	-19
CCCCC(CCCC)=N/N=C/c1c(O)n(CC)c2cc(C3=NNC(=O)CC3)ccc12	i	-4	2	3	3	-1	/	-17
CN(C)S(=O)(=O)n1cc(/C=C(\NC(=O)c2ccccc2F)C(=O)NCCCN2CCOCC2)c2ccccc21	i	-6	1	1	-8	-6	8	-6
CC(=O)Nc1nc(-c2ccc(Cl)cc2)nc(C)c1C(C)=O	i	2	-2	2	4	2	-17	-1
Cn1c(N)c(C(=O)COC(=O)CNC(=O)c2ccccc2F)c(=O)n(C)c1=O	/	-7	-2	0	/	/	-2	-12
Cc1ccnc(NS(=O)(=O)c2ccc(NS(=O)(=O)c3ccccc3)cc2)n1	i	-8	4	2	-1	-6	/	-2
O=S(=O)(c1cccc2nsnc12)N1CCCC1	i	6	-5	4	2	12	2	1

Grouped by structure: those above with fluorine (ten)
SMILES	Rce1 inhib	Yeast UUG start	MT1-MMP act inh	MT1-MMP act inh RFP	eIF4H FP inh	PABP FP inh	HIV Env fusion	CSC inhib
Cc1onc(-c2ccccc2)c1CNC(=O)Nc1ccc(F)cc1F	i	/	3	-11	3	-4	-18	-6
Cc1nn(C)c(Oc2cccc(Cl)c2)c1C(=O)Nc1ccc(F)cc1F	i	/	-3	-6	-9	-10	/	-4
CC(C)(C)OC(=O)NNC(=O)Nc1ccccc1C(F)(F)F	i	/	3	4	-6	0	-8	8
O=C(c1ccoc1)N1CCC2(CCCN(Cc3ccc(F)c(F)c3)C2)C1 (stereo not drawn)	i	-17	-11	3	-4	-6	6	4
CN(CC(=O)Nc1cccc(S(=O)(=O)N2CCCC2)c1)CC(=O)Nc1ccc(Cl)c(C(F)(F)F)c1	i	-3	10	-25	/	/	6	32
O=C(CNCc1ccc(F)cc1)Nc1ccc(C(=O)N2CCCCC2)cc1	i	6	5	4	8	1	-5	17
Cc1cc2[nH]c(=O)c(=O)[nH]c2cc1S(=O)(=O)Nc1cccc(F)c1	i	-4	2	2	-8	-8	-7	-16
Cc1cccc(NC(=O)COC(=O)c2nn(-c3ccccc3C(F)(F)F)cc2O)c1C	/	-7	1	-1	/	/	8	/
CN(C)S(=O)(=O)n1cc(/C=C(\NC(=O)c2ccccc2F)C(=O)NCCCN2CCOCC2)c2ccccc21	i	-6	1	1	-8	-6	8	-6
Cn1c(N)c(C(=O)COC(=O)CNC(=O)c2ccccc2F)c(=O)n(C)c1=O	/	-7	-2	0	/	/	-2	-12

Source: PubChem

Not all compounds are listed, so the mix of outcomes need not match the whole.
